Autofluor counter: compound fluorescence in toxin protease inhibitor counterscreen. 360,000 compounds, 3.1% hits. fluorescence intensity (concentration not given with the values). compound autofluorescence counterscreen, microsphere flow cytometry; hits give high values;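 active means at least 3 SD above the mean of all compounds, about 16000 in these data; inconclusive means too few beads counted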;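 further: 100 nL of 1 mM stock went into each well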
RN4220 kill: kills Staphylococcus aureus RN4220 | S. aureus RN4220 growth, OD600, 16 h | inhibition, % (concentration not given with the values) | 330,000 compounds, 0.33% hits | AID 1259311;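 active means z-score of -3 or lower and OD600 up to 0.18 on both plates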;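 further: plate controls were untreated cells for no effect and reference antibiotic for full effect; stock transfer was 100 nL into about 80 µL; one replicate is shown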
ugtP null kill: kills S. aureus RN4220 lacking UgtP. AID 1259309. S. aureus RN4220 ugtP deletion, OD600 growth, 16 h; some inactives read as strong as hits. 330,000 compounds, 0.54% hits. growth inhibition, % (concentration not given with the values);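 active means z-score under -3 and OD600 up to 0.15 on both plates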;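 further: plate controls were untreated wells for no effect and antibiotic for full effect; wells of about 80 µL received 100 nL stock; the first replicate is given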
Mtb hypoxia rep: reduces hypoxia-regulated biosensor signal in M. tuberculosis. M. tuberculosis hypoxia-regulated fluorescent reporter, fluorescence. fluorescence inhibition, % (test concentration not listed). 300,000 compounds, 0.1% hits;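 active means 35 to 45% if threefold the growth effect, above 45% if 1.5-fold the growth effect; inactive means the rest, general growth blockers included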;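 further: wells of about 50 µL received 100 nL stock; 0% = vehicle wells and 100% = reference inhibitor wells; whole bacteria with a GFP reporter of the hypoxia response; strong numbers were not always called active; many hits fall short of the cut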
PrP UTR inh: suppresses PrP 5' UTR mRNA reporter expression. cell-based PrP 5' UTR mRNA reporter, plate reader. inhibition, % (concentration not given with the values). 340,000 compounds, 0.35% hits. AID 488862;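 active means every replicate at 50% or more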;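 further: 0 = median of the neutral control wells; tested in H4 reporter cells; numbers are from one replicate; inactives centre near -14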
BJeLR viability: BJeLR cell viability loss; BJeLR (HRASV12) viability, CellTiter-Glo ATP luminescence, 48 h; reference of the scale not given here; inhibition, % (no concentration beside the values); 300,000 compounds, 0.17% hits; AID 1554;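 active means replicate mean above 50%; inconclusive means above 50% but judged a plate artefact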;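 further: 50 nL library stock added to about 25 µL; numbers are from one replicate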
Mtb hypoxia rep growth: second read-out of Mtb hypoxia rep, no call of its own (marks repeat the call); growth inhibition, %; measured here: M. tuberculosis growth (absorbance);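 0% = vehicle and 100% = reference antibiotic; read after six days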
Starred values were filed as active, the others as inactive; ? = inconclusive; nt = not tested or not shown; & = joins results of further samples.

SMILES	Autofluor counter	RN4220 kill	ugtP null kill	Mtb hypoxia rep	Mtb hypoxia rep growth	PrP UTR inh	BJeLR viability
Cc1ccc(NC(=O)n2ncc3c(C)cccc32)cc1F	4096	nt	nt	nt	nt	-56	-14
COc1ccc(C2C(C(=O)OCC(=O)N3CCCCC3)CCC(=O)N2c2ccc(OC)cc2)cc1 (stereo not drawn)	3925	-1.1	1	11	6	-3	-4
Cc1cccc(C(=O)OCC(=O)NNC(=O)c2cccs2)c1O	5808	-0.8	-1	0	4	-4	-1
CC(CC(=O)NCc1ccco1)=NNC(=O)C(c1ccccc1)c1ccccc1	nt	2.0	7	11	2	nt	nt
CCOc1ccc(NC(=O)CSc2nnc(Cc3csc(C)n3)o2)cc1	5513	nt	nt	nt	nt	-5	8
Cc1c(N=C2NC(=O)/C(=C/c3ccc(O)cc3)S2)c(=O)n(-c2ccccc2)n1C	2022	nt	nt	nt	nt	-18	-16
Cc1cc(N2CCN(C)CC2)nc2ccc(NC(=O)CCC3CCCC3)cc12	3605	2.3	11	4	1	-21	-6
Cc1c(CCO)c(=O)[nH]n1C(=O)c1c(F)cccc1F	15237	2.5	2	5	1	17	-7
O=C(COC(=O)/C=C/c1ccccc1Cl)Nc1cccnc1Cl	3442	6.0	-3	10	-2	-4	nt
COC(=O)c1ccncc1C(=O)Nc1ccc(OC)cc1	3685	2.5	6	-3	-10	-15	1

An excerpt from above in order of length of the SMILES, low to high:
SMILES	Autofluor counter	RN4220 kill	ugtP null kill	Mtb hypoxia rep	Mtb hypoxia rep growth	PrP UTR inh	BJeLR viability
COC(=O)c1ccncc1C(=O)Nc1ccc(OC)cc1	3685	2.5	6	-3	-10	-15	1
Cc1ccc(NC(=O)n2ncc3c(C)cccc32)cc1F	4096	nt	nt	nt	nt	-56	-14
Cc1cccc(C(=O)OCC(=O)NNC(=O)c2cccs2)c1O	5808	-0.8	-1	0	4	-4	-1
Cc1c(N=C2NC(=O)/C(=C/c3ccc(O)cc3)S2)c(=O)n(-c2ccccc2)n1C	2022	nt	nt	nt	nt	-18	-16

Additional results follow:
SMILES	Autofluor counter	RN4220 kill	ugtP null kill	Mtb hypoxia rep	Mtb hypoxia rep growth	PrP UTR inh	BJeLR viability
COc1cccc(NC(=O)CSc2ncnc3c2cnn3Cc2ccccc2)c1	8907	-6.5	1	6	13	-25	-2
COc1ccccc1NS(=O)(=O)c1ccc(Cl)c(NC(=O)CN2C(=O)c3ccccc3C2=O)c1	1965	11	14	5	7	4	-17
COc1cc(/C=C/C(=O)OCC(=O)NCc2ccccc2OC)ccc1O	4417	2.3	4	-7	-4	-14	1
COc1cc(CCC(=O)OCC(=O)Nc2c(C)cc(C)cc2C)cc(OC)c1OC	2727	4.0	10	8	0	-15	-4
O=C(COC(=O)CNS(=O)(=O)/C=C/c1ccccc1)Nc1cc(S(=O)(=O)N2CCCCC2)ccc1Cl	2081	6.2	9	7	-1	3	5
CN1C(C(=O)NCc2ccccc2)CC2Cn3c(nc4cc5ccccc5cc43)C21 (stereo not drawn)	3186	-2.1	-2	0	0	-19	0
CCC(=O)Nc1nnc(SCC(=O)NCCc2ccc(OC)c(OC)c2)s1	4216	-0.5	7	-1	2	-15	-11
CCOC(=O)C1=C(CSc2nncn2C)NC(=O)NC1c1cc(OCC)ccc1OCC (stereo not drawn)	2347	-3.5	-3	nt	nt	-34	-7
C=CCON=CC1C(=O)CC(C)(C)CC1=O	nt	3.2	5	-8	0	nt	nt
COc1cccc(C=NNc2ncc(C)c(=O)[nH]2)c1OC	nt	2.1	2	7	5	nt	nt
CNC(=S)NNC(=O)c1sccc1C	2048	1.6	1	2	1	-4	-10
CCn1c(CNc2ccc(Cl)cc2)nnc1SCc1ccccc1	4777	-1.9	-4	11	5	-15	1
Oc1ccc(Br)cc1C=Nc1ccc2c3c(cccc13)CC2	3654	8.7	8	2	-1	-10	1
CCOC(=O)C(C(=O)OCC)N(C#N)c1nc(N(C)C)nc(N(C)C)n1	4593	4.8	-1	-8	0	-32	4
CC(=O)c1ccc(S(=O)(=O)NCc2nnnn2-c2ccccc2)cc1	5104	-1.0	5	8	1	-12	7
COc1ccccc1OCCC(=O)Nc1cccc(S(=O)(=O)N2CCCCC2)c1	9627	9.9	4	-2	2	-19	-2
COc1ccccc1OCc1cc(C(=O)NCCN2CCCC(O)C2)no1 (stereo not drawn)	5549	3.5	1	5	7	-13	8
Cc1ccc(-c2nc3ccccc3c(=O)n2-c2c(C)n(C)n(-c3ccccc3)c2=O)cc1	3601	1.6	2	-10	-3	-5	-11
COCC1CCN(C(=O)C2CCC(=O)N(Cc3cccc(F)c3)C2)CC1 (stereo not drawn)	?	2.6	6	9	2	-6	-19
O=C(CN(Cc1ccccc1)S(=O)(=O)c1cccc(C(F)(F)F)c1)NC1CCCCC1	2178	-0.2	-5	13	0	-9	0
O=C(COC(=O)c1ccc(F)cc1Cl)NC1CCS(=O)(=O)C1 (stereo not drawn)	?	-2.2	-5	2	-3	nt	nt
O=C(O)c1ccccc1C=NNC(=O)C1CCCCC1	nt	9.3	3	0	-1	nt	nt
Cc1ccc(OC(C)C(=O)NN=Cc2ccccn2)cc1 (stereo not drawn)	nt	5.0	4	20	2	nt	nt
O=C(C1CCCN(S(=O)(=O)c2cccc3nsnc23)C1)N1CCCCCC1 (stereo not drawn)	4771	2.8	6	8	11	-5	-3
CCOC(=O)c1sc(-c2ccccc2)cc1NC(=O)Nc1ccccc1	2659	1.3	2	-1	8	-6	7
CCN1CCN(c2ccc(S(=O)(=O)N3CCOCC3)cc2NC(=O)c2ccc(OCC(C)C)cc2)CC1	3846	4.1	7	-7	2	-23	nt
CC(C)CNc1ncnc2c1sc1nc(N3CCOCC3)c3c(c12)CC(C)(C)OC3	3657	7.7	4	6	13	-16	-9
COc1ccc(N2CCN(S(=O)(=O)Cc3ccccc3)CC2)cc1	10690	2.8	0	6	8	18	-8
Cc1ccc(S(=O)(=O)Nc2nsc(N)n2)cc1	17173*	7.6	14	10	5	-21	-7
CCC(C(=O)OCCOCCN(CC)CC)c1ccccc1 (stereo not drawn)	4523	0.9	2	3	-4	nt	0
N#CC(=NNc1ccc([N+](=O)[O-])cc1)C(=N)N1CCOCC1	nt	2.6	8	3	7	nt	nt
Cc1cc(C)cc(OC(C)C(=O)Nc2ccccc2C(=O)NCc2cccnc2)c1 (stereo not drawn)	5783	-2.2	6	-6	4	-9	-5
O=C(CC1C(=O)NCCN1Cc1cccc(Oc2ccccc2)c1)NCCc1cscn1 (stereo not drawn)	2400	5.6	6	8	9	-29	6
Cc1ccc(NC(=O)c2ccccc2F)c(NC(=O)c2ccccc2F)c1	3319	0.5	4	12	4	-38	-2
CCOC1OC(C(=O)N2CCN(C)CC2)=CC(C(C)(C)C)C1CCCO (stereo not drawn)	nt	3.8&5.4	-1&-2	-1&12	1&5	nt	nt
CN(C(=O)COC(=O)c1cnc(Cl)c(Cl)c1)C1CCS(=O)(=O)C1 (stereo not drawn)	4306	2.2	12	16	5	-38	-10
COc1ccc(OCC(=O)NC(=S)Nc2ccc(S(=O)(=O)Nc3cc(C)on3)cc2)cc1	4634	1.2	11	10	0	-36	13
Cc1ccc([N+](=O)[O-])c2c1C(N1CCCCC1)C(C)(C)O2 (stereo not drawn)	2131	5.2	6	3	4	-9	0
O=S(=O)(Nc1ccc(S(=O)(=O)N2CCOCC2)cc1)c1ccccc1	2815	3.8	-7	-7	8	-37	9
CC(=O)Nc1ccc2nc(-c3ccncc3)[nH]c2c1	4640	-1.4	1	3	5	-16	10
O=C(Nc1ccccc1)c1cc2ccc3ccccc3c2s1	5739	-2.4	-9	18	5	-95	4
CCN(CC)c1ccc(NC(=O)CN2CCN(S(=O)(=O)c3cc(Cl)ccc3OC)CC2)cc1	6002	-3.4	-7	-3	11	-10	13
CCOC(=O)CN1CC23C=CC(O2)C(C(=O)NCc2ccccc2OC)C3C1=O (stereo not drawn)	6243	-0.8	5	nt	nt	-17	-1
COc1cc(C(CC(=O)Nc2ccccn2)N2Cc3ccccc3C2=O)cc(OC)c1OC (stereo not drawn)	3183	1.7	8	-16	-3	nt	5
CCc1nnc(NC(=O)C2=CCN(S(=O)(=O)c3ccc(F)cc3)CC2)s1	4948	2.0	10	11	8	-6	-5
CCC(C)NC(=O)C1c2ccccc2C(=O)N1Cc1ccc(F)cc1 (stereo not drawn)	3870	0.2	-1	4	-3	-20	-5
O=C(CN1C(=O)C2C3C=CC(C3)C2C1=O)Nc1nc(-c2ccccn2)cs1 (stereo not drawn)	2479	2.2	-5	5	-4	-3	4
CC(=NNC(=O)CCC(=O)NCc1ccccc1)c1ccc([N+](=O)[O-])cc1	nt	3.4	5	6	8	nt	nt
COc1ccc2nc(SCc3cnc(C)nc3N)[nH]c2c1	9117	5.0	8	1	11	-17	-5
Cc1nc(C(C)NC(=O)c2ccc(OC3CCN(Cc4ccccn4)CC3)cc2)c(C)s1 (stereo not drawn)	4921	4.8	-5	7	6	-19	3

Next structures:
SMILES	Autofluor counter	RN4220 kill	ugtP null kill	Mtb hypoxia rep	Mtb hypoxia rep growth	PrP UTR inh	BJeLR viability
O=C1c2ccccc2C(=O)N1OCc1cccc(Cl)c1	2293	7.1	10	11	12	-1	-6
CCN(CC)S(=O)(=O)c1ccc(-c2csc(C)n2)cc1	4029	11	3	24	12	7	8
O=C(Nc1nc2ccc(SC(F)F)cc2s1)c1ccc(NS(=O)(=O)c2ccc(F)c(F)c2)cc1	2439	100*	100*	3	-1	-61	-11
Cc1ccc(NC(=S)N2CCCCC2CO)cc1C (stereo not drawn)	6102	0.8	2	1	3	-65	5
Cc1ccc(Cn2cc(/C=C/C(=O)O)c(-c3ccccc3)n2)cc1	3982	nt	nt	nt	nt	-13	9
CC(C)NS(=O)(=O)c1ccc(OCC(=O)N2CCc3ccccc3C2)cc1	3272	11	-2	8	2	-15	-3
Cc1ccc(NC(=S)NCc2ccccc2)cc1[N+](=O)[O-]	2579	-4.4	-19	21	12	-27	8
CN1CCN(C(=S)NC(=O)c2cccc(S(=O)(=O)N(C)C)c2)CC1	3230	6.5	4	6	8	-11	16
C(=NNc1nc2ccccc2[nH]1)c1ccc2ncccc2c1	nt	-2.3	-13	0	0	nt	nt
COc1cc2c(cc1NC(=O)CN1CCN(S(=O)(=O)c3ccc(C)cc3)CC1)oc1ccccc12	2245	-1.8	-8	1	0	6	8
CCc1cc(C(=O)N2CCN(C(=O)c3ccco3)CC2)sc1C	nt	3.4	1	8	6	5	8
O=C(Nc1cnn(Cc2c(Cl)cccc2Cl)c1)c1ccc([N+](=O)[O-])cc1	4341	-5.5	-3	nt	nt	-26	4
CCOc1ccc(C(=O)NCC(=O)NNC(=O)c2cc(C)oc2C)cc1OCC	3596	-1.0	-6	-3	9	-10	nt
Cc1cccc(CC(=O)NCCS(=O)(=O)N2CCN(c3cccc(Cl)c3)CC2)c1	5518	0.2	3	4	12	-17	10
Nc1ccc(NC(=O)c2ccc(C(=O)Nc3ccc(N)cc3)cc2)cc1	4502	nt	nt	nt	nt	-24	-7
O=C(NC1CC1)c1cc2ccccc2o1	5425	3.3	2	5	1	-20	4
CC(O)Cc1nsc(NC(=O)c2cccs2)n1 (stereo not drawn)	4423	0.9	10	10	9	-6	-1
Cc1cc2nsnc2c(S(=O)(=O)N2CCN(C)CC2)c1C	3734	-0.1	6	0	1	-20	-6
O=C(NC1CCCCC1)c1ccc2c(c1)S(=O)(=O)c1ccccc1C2=O	4056	7.0	-8	9	12	-13	-8
CSc1nc2c(ccc3ccccc32)o1	4488	15	3	5	4	-25	-1
COc1ccc(CC(=O)OCC(=O)N2CCCC(C)C2)cc1 (stereo not drawn)	3955	3.7	8	3	7	-12	-17
Cc1ccc(O)c(C(=O)c2cnc3c(c2)CN(C)C(=O)N3)c1	21945*	0.4	6	6	3	-15	16
CCCP(=O)(CCC)CCP(=O)(c1ccccc1)c1ccccc1	2191	3.5	1	14	5	-6	-2
CCN(CC)CCCNC(=O)c1oc2ccc3c(c2c1C)C(O)CC(C)(C)O3 (stereo not drawn)	3235	3.0	2	2	-6	-4	4
O=C(Nc1ccccc1)OC1CCS(=O)(=O)C1 (stereo not drawn)	9471	4.5	-1	7	7	-11	-3
CCN(c1cc(C)cc(C)c1)S(=O)(=O)c1nnc(NC(=O)C(C)C)s1	3789	5.8	-1	-6	2	-16	-4
